Compound activity (PubChem)
D2 PAM = potentiates the human D2 dopamine receptor allosterically; P14416; DiscoveRx D2 beta-arrestin cells, luminescence, 90 min; 100% = 57 uM dopamine signal; potentiation, % (no concentration beside the values); hit rate 0.23% among 360,000; AID 624464; active = potentiation of 50% or more; inconclusive = 30% to 50%; inactive = 30% or less;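 note: compound concentration not given in the record; tested on top of an EC20 dose of dopamine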
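PathHunter beta-arrestin assay in DiscoveRx D2 cells. Compounds were added with an EC20 of dopamine (50 nM final) for 90 min at 37 deg C. Luminescence was read 1 h after detection reagent, with 57 uM dopamine as the EC100 control.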
D2 agonist = agonists of human D2 dopamine receptor (beta-arrestin); activation, % (concentration not given with the values); P14416; hit rate 0.084% among 360,000; DiscoveRx PathHunter D2 beta-arrestin, luminescence, 90 min; 100% = 57 uM dopamine signal; in the data active = activation above about 40%; inconclusive = about 15% to 40%; inactive = below about 15%; note: compound concentration not given in the record; the text of the record calls up to 30% inactive
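Agonist mode: compounds alone added to overnight-plated D2 PathHunter cells for 90 min at 37 C, with 57 uM final dopamine (EC100) defining full response. Beta-arrestin recruitment detected by chemiluminescent reagent, read after 1 h at ambient temperature.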
gsp antag = antagonizes gsp, the McCune-Albright syndrome mutation; gsp-mutant cells, cAMP HTRF, 30 min; control for the full effect not named in the record; Potency, µM (titrated, usually from 76.9 µM), for the others: top-dose activity change, negative = inhibition, hits mostly inhibitors; hit rate 0.4% among 340,000; AID 624288; active = falling curve of any shape with a large fitted effect; inconclusive = falling curve, mostly with a smaller effect; inactive = flat or rising curve; cell line not stated here;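 note: intracellular cAMP measured with PDE inhibitor Ro 20-1724 present during compound exposure; potency is the fitted concentration of half-maximal effect; % is set by controls: 0 for no effect and ±100 for the full control effect; nearly all actives have a fitted effect of over 65% in size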
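HTRF cAMP measurement after 30 min RT detection following 30 min, 37C compound treatment alongside […] (added as 300 uM solution) in G418-selected cells seeded at 2000/well and grown 16–24 h.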
gsp ag = activates gsp, the McCune-Albright syndrome mutation; gsp mutant cells, cAMP HTRF, 30 min; control for the full effect not named in the record; Potency, µM (series often up to 76.9 µM), without a hit: top-dose activation (cAMP increase), most hits filed as activators; hit rate 0.13% among 340,000; active = well fitted activation curve with a large enough effect; inconclusive = small, poorly fitted or top-dose-only effect, or another doubt; inactive = no such curve, though single readings can be large or run the other way; cell line not stated here;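 note: phosphodiesterase inhibitor Ro 20-1724 added with compounds to block cAMP breakdown; potency is the fitted concentration of half-maximal effect; nearly all actives have a fitted effect of over 60% in size; about a fifth of the inactives were tested at one dose only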
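Cells in DMEM/10% FBS with G418 were pretreated with compounds in DMSO plus […] (300 uM stock) for 30 min at 37C. cAMP was measured by HTRF (cAMP-d2 plus anti-cAMP antibody-K) after 30 min at room temperature.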
CtBP-E1A blk = blocks the CtBP interaction with E1A | AlphaScreen GST-E1A/His-CtBP binding, 1536-well; hits give low values; control for the full effect not named in the record | activity change, % (test concentration not listed) | hit rate 0.49% among 340,000 | AID 651724; in the data active means activity change below about -65%; inconclusive means about -30% to -65%; inactive means above about -30%; note: % is set by controls: 0 for no effect and ±100 for the full control effect; compound concentration not given in the record
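AlphaScreen with 125 nM GST-E1A and 125 nM His-CtBP (5X stocks) in Tris pH 8.0, 300 mM NaCl, BSA, Tween 20, TCEP. Compounds preincubated 2 h at 37 deg C, then glutathione donor/nickel acceptor beads added for 1 h at 37 deg C in dark.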
Six1-Eya2 blk = Six1/Eya2 interaction inhibition | Q15475+O00167 | AlphaScreen GST-Six1/His-Eya2 binding, biochemical; hits give low values; control for the full effect not named in the record | activity change, % (no concentration beside the values) | hit rate 0.56% among 360,000; in the data active = activity change below about -65%; inconclusive = about -30% to -65%; inactive = above about -30%; note: % is set by controls: 0 for no effect and ±100 for the full control effect; compound concentration not given in the record
Target sequence (O00167 whole entry, looked up): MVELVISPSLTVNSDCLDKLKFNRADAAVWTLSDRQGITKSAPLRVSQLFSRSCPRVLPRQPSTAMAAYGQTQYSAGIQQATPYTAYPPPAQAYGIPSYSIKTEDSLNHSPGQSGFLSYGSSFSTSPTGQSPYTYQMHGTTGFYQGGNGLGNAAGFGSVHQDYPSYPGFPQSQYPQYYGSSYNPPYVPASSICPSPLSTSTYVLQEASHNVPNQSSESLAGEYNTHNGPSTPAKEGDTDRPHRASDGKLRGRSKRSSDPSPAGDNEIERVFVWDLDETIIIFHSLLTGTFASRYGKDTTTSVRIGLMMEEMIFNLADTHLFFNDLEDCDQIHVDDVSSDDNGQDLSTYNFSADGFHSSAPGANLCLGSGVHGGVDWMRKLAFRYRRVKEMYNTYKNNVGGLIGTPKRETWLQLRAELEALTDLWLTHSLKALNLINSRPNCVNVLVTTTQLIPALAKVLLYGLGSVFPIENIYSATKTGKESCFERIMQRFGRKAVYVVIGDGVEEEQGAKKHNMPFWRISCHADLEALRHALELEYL
Target sequence (Q15475 whole entry, looked up): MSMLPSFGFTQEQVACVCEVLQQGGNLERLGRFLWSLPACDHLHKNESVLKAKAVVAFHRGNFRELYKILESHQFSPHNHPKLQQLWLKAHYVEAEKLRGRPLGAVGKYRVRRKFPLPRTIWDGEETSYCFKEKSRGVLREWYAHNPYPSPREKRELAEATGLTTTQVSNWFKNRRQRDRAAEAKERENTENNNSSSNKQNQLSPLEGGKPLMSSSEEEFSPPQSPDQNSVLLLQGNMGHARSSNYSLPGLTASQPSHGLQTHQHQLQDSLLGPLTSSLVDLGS
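Homogeneous AlphaScreen proximity assay pairing GST-Six1 with His-tagged Eya2 (added as 5X mix: 250 nM and 500 nM) in 50 mM Tris pH 8.0, 300 mM NaCl, 1 mM TCEP. Glutathione donor and nickel acceptor beads; 1 h, 37 °C, dark.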
Numbers without * were called inactive; u = inconclusive; x = no result given; [ ] = remark or other dose. Hits appear at their usual frequency, and some 1.4% of all compounds hit somewhere here.

SMILES	D2 PAM	D2 agonist	gsp antag	gsp ag	CtBP-E1A blk	Six1-Eya2 blk
NC(=O)N/N=C/c1ccc(-n2nncc2-c2ccc(Cl)cc2)cc1	2	0.6	-5%	-4%[15.4 µM]	23	3
Cn1c(SCc2nc(-c3ccc(Cl)cc3)no2)nnc1-c1ccccc1	13	-1.0	-32%	4%	0	-8
Oc1ccccc1-c1cc(C(F)(F)C(F)F)nc(-c2ccccc2)n1	6	-1.7	-4%	-20%	-2	-1
CCCCOc1ccc(C(=O)NCC(=O)OCC(=O)N2CCN(S(=O)(=O)c3ccc(C)cc3C)CC2)cc1	1	4.8	-10%	-1%	-15	-3
O=c1ccc(S(=O)(=O)N2CCC(Cc3ccccc3)CC2)c[nH]1	0	-2.8	8%	u	15	16
O=C(/C=C/c1ccc(S(=O)(=O)N2CCOCC2)cc1)NCc1ccc(Cl)cc1	-7	7.1	-5%	-9%[15.4 µM]	5	-1
O=C(CCNC(=O)c1ccc(Br)cc1)Nc1cccc(S(=O)(=O)N2CCCCC2)c1	-11	-3.3	-6%	-29%	15	-8
CC(NC(=O)c1ccc(Br)cc1)C(=O)NC1=NCCS1 (configuration not stated)	-3	1.6	0%	8%	4	-1
COc1ccc2nc(N3C(=O)C(O)=C(C(=O)c4ccco4)C3c3ccco3)sc2c1 (configuration not stated)	-4	1.1	7%	-15%[15.4 µM]	11	-10
Nc1nonc1-n1nnc(C(=O)N/N=C/c2cccc(Cl)c2)c1-c1cccs1	-19	-6.4	40µM*	-2%	-4	-3
COc1cccc(OCC(=O)NNC(=O)c2cccs2)c1	-5	-2.3	3%	10%	4	5
CCOc1ccc(CN(C)c2ccc(S(=O)(=O)N3CCN(C)CC3)cc2[N+](=O)[O-])cc1OC	2	-15	-18%	6%	-9	-18
C=CCn1c(/N=C/c2ccc(N(C)C)cc2)nc2ccccc21	0	-0.5	-5%	15%	-4	0
CCCCc1nc(N)c(C#N)c(-c2ccco2)c1CCC	-2	-1.7	7%	18%	1	-4
NC(=O)C1CCN(CC(=O)Nc2ccccc2C(=O)NC2CC2)CC1	-1	-2.9	10%	-41%[inhibitor]	2	8
C=CCN1C(=O)C2(C(C(=O)c3ccc(C)o3)=C(O)C(=O)N2CCCN2CCOCC2)c2ccccc21 (configuration not stated)	-24	-0.9	27%	-3%	3	-11
Cc1ccc2nc(-c3ccc(NC(=O)COC(=O)c4ccco4)cc3)sc2c1	-16	-2.1	9%	-24%	7	9
CC1(C)O[C@@H]2[C@H](O1)[C@@H](CO)O[C@H]2n1cnc2c(=O)[nH]cnc21	0	-2.2	12%	-34%[inhibitor]	2	0
CCCN1C(=O)COc2ccc(-c3n[nH]c(=O)c4ccccc34)cc21	4	-0.1	-9%	14%	0	1
Cc1ccccc1OCC(=O)Nc1nnc(C2CCCCC2)s1	-7	-5.3	9%	-102%[inhibitor]	-5	-8
CCNC(=O)COc1cc(C)c(Cl)c(C)c1	7	0.0	-13%	-49%[inhibitor]	-1	1
O=C(NCC(=O)N(c1cccc(F)c1)C(C(=O)NC1CCCC1)c1ccncc1)c1ccco1 (configuration not stated)	-10	-3.9	-5%	-5%[15.4 µM]	0	-16
CC1=C(C)CS(=O)N(S(=O)(=O)c2ccc(Cl)cc2)C1 (configuration not stated)	-10	-0.7	-6%	-17%	8	-1
O=C(CSc1nc2[nH]ncc2c(=O)n1-c1ccccc1Br)NCc1ccccc1Cl	-13	-1.1	8%	10%	-8	7
CC1Cc2cc(S(=O)(=O)N3CCN(c4ccc(Cl)cc4)CC3)ccc2N1C(=O)C1CC1 (configuration not stated)	-6	7.8	-18%	-3%	5	0
SMILES	D2 PAM	D2 agonist	gsp antag	gsp ag	CtBP-E1A blk	Six1-Eya2 blk
COc1ccc(S(=O)(=O)N2CCC(C(=O)NN3CCCCC3)CC2)cc1	-10	0.4	x	-25%	1	10
CC(C)c1ccc(NC(=O)CSc2nc3ccsc3c(=O)n2Cc2ccc(C(=O)O)cc2)cc1	-3	2.9	u	u	x	-3
Cn1nccc1C(=O)N1CCCC(C(=O)c2ccc(C(F)(F)F)cc2)C1 (configuration not stated)	-6	0.1	-1%	21%	7	2
CCOc1cc(C(=O)NC(CC(=O)O)c2ccc(OC3CCCC3)cc2)cc(OCC)c1OCC (configuration not stated)	0	1.4	-11%	12%	x	2
COc1ccccc1C(=O)Nn1cnnc1	-2	-3.9	3%	12%[15.4 µM]	-3	-9
CCCc1c(C)nc2c(OC)cccc2c1SCC(=O)O	2	-5.0	1%	8%[15.4 µM]	0	6
c1ccc2cc(-c3csnn3)ccc2c1	-6	-2.2	3%	4%	14	17
CCCC(=O)Nc1ccc2c(c1)nc(CN1CCCC1)n2C	-26	-3.5	-4%	5%	4	1
O=C(O)c1cc2c(s1)-c1ccccc1CC2	-1	-5.6	-2%	12%[15.4 µM]	6	12
c1ccc(-c2nnc3sc(CN4CCC5(CC4)OCCO5)cn23)cc1	-7	0.0	-4%	11%	5	1
CC(SCc1ccccc1)C(=O)NCc1ccccn1 (configuration not stated)	-7	-1.3	12%	4%[15.4 µM]	0	-5
COc1ccc(Nc2nc3c(C)cccc3cc2C#N)cc1	-7	0.4	-2%	-23%[15.4 µM]	3	7
CCOc1cc(CN2CCN(C(=O)CC(C)C)CC2)ccc1OC	-18	0.9	-4%[15.4 µM]	-42%[inhibitor]	3	14
Cc1ccc(S(=O)(=O)N[C@@H](C)C(=O)N2CCC(C(=O)N3CCC[C@H]3C(=O)O)CC2)cc1	-1	0.6	6%	0%	-5	10
CN(CCc1ccccc1)C(=O)c1cccc(NC(=O)Cc2cccc(NC(=O)C3CCN(C(=O)C4CCC4)CC3)c2)c1	x	-1.1	4%	x	-3	-5
Cc1nnc(NC(=O)c2cc(-c3ccncc3)nc3c(C)cccc23)s1	28	3.2	-15%	27%	-5	-6
O=C(CN1CCCc2ccccc21)Nc1ccc(F)cc1[N+](=O)[O-]	-38	15	-6%	-64%[inhibitor]	-15	-21
Cc1cn([C@H]2C[C@H](O)[C@@H](CNC(=O)c3ccccn3)O2)c(=O)[nH]c1=O	x	-1.7	x	-31%[inhibitor]	-1	-1
CC(=O)N1CCc2cc(S(=O)(=O)NC(CC(C)C)C(=O)Nc3cc(C)ccn3)ccc21 (configuration not stated)	-3	-2.0	-10%	0%	-2	2
Cc1ccc(C(=O)CCC2CCCC2=O)cc1 (configuration not stated)	-8	-1.9	1%	16%	9	11
COc1cccc(CNC(=O)Cn2c(=O)oc3cc(S(=O)(=O)N4CCCCC4)ccc32)c1	-4	3.4	-13%	0%	x	6
COc1ccc(C(=O)N2CCCCC2c2cc(C(=O)Nc3ccc(F)c(Cl)c3)no2)cc1 (configuration not stated)	-14	-3.1	x	x	-6	-1
COc1ccc(O)c(C(=O)c2cnc3onc(C)c3c2)c1	22	5.0	-2%	-52%[inhibitor]	-1	-12
O=C(CCSCc1cccc(Cl)c1)NCCC1=CCCCC1	-17	-5.1	-2%	-7%	2	-3
O=C(Nc1ccc(F)cc1)c1ccc(COc2ccccc2)cc1	-5	-6.6	20%	u	15	5

Brought forward from above: 3 compounds, then new ones.
SMILES	D2 PAM	D2 agonist	gsp antag	gsp ag	CtBP-E1A blk	Six1-Eya2 blk
COc1ccc(O)c(C(=O)c2cnc3onc(C)c3c2)c1	22	5.0	-2%	-52%[inhibitor]	-1	-12
O=C(CCSCc1cccc(Cl)c1)NCCC1=CCCCC1	-17	-5.1	-2%	-7%	2	-3
O=C(Nc1ccc(F)cc1)c1ccc(COc2ccccc2)cc1	-5	-6.6	20%	u	15	5
CC12C=CC(=O)C=C1CCC1C2C(=O)C[C@@]2(C)C1CCC2(O)C(=O)CO (some centres not stated)	-3	-6.6	2%	x	5	6
CN(C)C(=O)CSc1nc(SCC(=O)N(C)C)n(-c2ccccc2)n1	0	1.4	0%	-3%	9	3
CC1CCCC(C)N1C(=O)COC(=O)COc1ccccc1C#N (configuration not stated)	-2	-1.9	5%	-27%	9	1
COc1ccc(C2/C=C\CN(Cc3ccncc3)CC(=O)N2Cc2ccc(F)cc2)cc1 (configuration not stated)	-6	-2.8	3%	x	0	0
COc1ccc(NC(=O)Nc2ccccc2F)c(C)c1	-4	-1.2	10%	3%[15.4 µM]	-11	-2
CN(Cc1ccc(F)cc1)C(=O)COc1ccc2ccccc2c1	2	-3.9	-9%	-2%[15.4 µM]	2	1
COC(=O)c1ccccc1NC(=O)C1CCCN(S(=O)(=O)c2ccc(OC)cc2)C1 (configuration not stated)	3	-1.3	u	7%	-3	-8
Cc1ccc(N(Cc2ccccc2)C(=O)CSC(C)C(=O)Nc2cc(C)on2)cc1 (configuration not stated)	-24	-1.9	x	-52%	-4	2
Cc1ccc(C)c(NC(=O)CCn2cnnn2)c1	-2	-4.9	7%	6%	5	6
COc1ccccc1-c1cnc(C(O)c2cccc(CN3CCCCC3)c2)[nH]1 (configuration not stated)	-27	-4.3	x	x	1	-11
O=C(c1cc(COc2ccc(F)cc2Cl)on1)N1CCC(OCc2cccnc2)CC1	-3	-0.2	5%	2%[15.4 µM]	-5	1
COc1ccccc1N(C)S(=O)(=O)c1ccc(C(=O)OCC(=O)Nc2cc(C)on2)cc1	0	0.1	-1%	-32%[inhibitor]	x	-2
CCc1nc2ccc(C(=O)NCCCN3CCCC3=O)cn2c1N(CCC(C)C)CCN(C)C	-11	-13	x	x	-23	9
O=C(NCCCCc1ccccc1)C12CN(Cc3ccccc3)CC1C(c1ccc([N+](=O)[O-])cc1)=NO2 (configuration not stated)	-4	-2.4	4%	-7%	x	-27
Cn1nnc(NC(=O)CSc2ncn[nH]2)n1	-4	-2.7	1%	-10%	4	-1
O=C(COc1ccc2ccccc2c1)NCCn1ccc2ccccc21	-1	9.4	-25%	-105%[inhibitor]	-1	-16
O=C(c1ccccn1)C1CCCN(Cc2nc(Cc3cccc(F)c3)no2)C1 (configuration not stated)	-3	-3.8	2%	-9%[15.4 µM]	1	3
CCOC(=O)C1=C(COC(=O)C2CC(=O)N(c3ccc(C)cc3)C2)NC(=O)NC1C (configuration not stated)	-6	-2.4	1%	6%[15.4 µM]	5	-2
COC(=O)c1[nH]c2ccccc2c1NS(=O)(=O)c1ccc(F)c(C)c1	-1	2.8	-10%	-72%[inhibitor]	-6	9
CN1C(=O)CC(N2CCN(C(=O)c3ccccc3)CC2)C1=O (configuration not stated)	8	-4.6	6%	-4%	23	18
COCCn1c(SCC(=O)Nc2ccc(NC(=O)c3ccco3)c(OC)c2)nc2ccccc2c1=O	-5	1.4	7%	8%	7	8
Cc1ccc(NC(=O)C2CCCN(S(=O)(=O)c3ccc4[nH]c(=O)ccc4c3)C2)cc1C (configuration not stated)	-4	-6.2	-5%	u	-2	2
